MT1-MMP act inh: inhibitors of human MT1-MMP activation; P50281; HT1080 RFP-PRO-GFP cells, GFP/RFP ratio fluorescence, overnight; percent of plate control window, DMSO zero; GFP/RFP ratio change, % at 20 µM; 360,000 tested, 0.061% active; AID 651647;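 active = GFP/RFP ratio change of at least 30% with cell ATP level not reduced by more than half and red fluorescence within 50% of control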; note: strong numbers were not always called active
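Assay system: HT1080 RFP-PRO-GFP cells | Dosing: 20 µM single dose, 1% DMSO | Incubation: Cells overnight before dosing, compound overnight, 37 °C, 5% CO2 | Evaluation: GFP/RFP fluorescence ratio | Control set: DMSO-only wells and HT1080 RFP-L50D-GFP cell wells as references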
eIF4H FP inh: inhibitors of RNA binding by human eIF4H | Q15056 | eIF4H fluorescence polarization binding assay | inhibition, % at 35 µM | 290,000 tested, 0.94% active | AID 2012;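 active = 50% or more with normal probe brightness, or confirmed in later tests; inconclusive = above 50% with abnormal brightness, or retests that disagree; inactive = below 50% or failed in later tests; about a fifth of its hits are not listed in these tables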;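 note: calls also rest on retests at 20 µM and on dose response follow-up; 0% = protein and probe with vehicle and 100% = probe without protein; strong numbers were not always called active; many hits fall short of the cut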
CSC inhib: blocks cancer stem cells. cancer stem cell-like cells viability, luminescence. inhibition, % at 7.5 µM. 300,000 tested, 1.1% active;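 active = mean at 75% or more and at least half the replicates too; inconclusive = mean and replicates disagree; tested in HMLE shEcad cells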;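 note: 0% = median of negative and 100% = median of positive control wells; the first replicate is given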
Rce1 inh: blocks yeast Ras-converting enzyme; yeast membranes, quenched prenylated peptide cleavage fluorescence; calls only; 290,000 tested, 0.27% active; AID 2563;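 active = fall in fluorescence gain of 50% or more versus controls, with final raw signal at or below 3038400; inconclusive = same 50% fall but final raw signal above 3038400; inactive = fall in fluorescence gain under 50%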;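 note: plate controls were neutral control wells for no effect and wells lacking membranes for full effect; tested at 10 µM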
PABP polyA inh: blocks human PABP binding to poly(A) RNA; P11940; fluorescence polarization; inhibition, % at 35 µM; 290,000 tested, 1% active; AID 2014;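 active = 50% or more with normal probe brightness, or confirmed in later tests; inconclusive = above 50% with abnormal brightness, or retests that disagree; inactive = below 50% or failed in later tests; about a fifth of its hits are not listed in these tables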;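 note: calls also rest on retests at 20 µM and on dose response follow-up; controls were probe without protein and protein plus probe with vehicle; some compounds called inactive have numbers as strong as hits; many hits fall short of the cut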
Target sequence (P11940 whole entry, looked up): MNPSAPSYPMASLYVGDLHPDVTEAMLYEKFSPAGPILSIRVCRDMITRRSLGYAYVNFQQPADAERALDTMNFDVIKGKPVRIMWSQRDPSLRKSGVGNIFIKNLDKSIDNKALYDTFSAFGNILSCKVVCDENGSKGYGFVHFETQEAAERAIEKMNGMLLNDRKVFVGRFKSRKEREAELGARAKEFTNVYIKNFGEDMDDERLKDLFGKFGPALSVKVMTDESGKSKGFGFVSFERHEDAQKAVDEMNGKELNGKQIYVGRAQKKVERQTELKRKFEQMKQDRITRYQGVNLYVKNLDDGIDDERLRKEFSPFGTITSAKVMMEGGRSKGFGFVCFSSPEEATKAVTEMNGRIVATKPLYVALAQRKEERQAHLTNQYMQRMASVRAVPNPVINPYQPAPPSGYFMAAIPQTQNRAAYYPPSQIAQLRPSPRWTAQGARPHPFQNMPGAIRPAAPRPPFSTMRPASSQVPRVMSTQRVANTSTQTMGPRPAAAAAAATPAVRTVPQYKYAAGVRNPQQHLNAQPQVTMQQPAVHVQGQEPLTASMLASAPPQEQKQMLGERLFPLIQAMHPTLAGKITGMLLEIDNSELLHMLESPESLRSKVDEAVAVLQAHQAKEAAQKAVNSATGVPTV
Yeast UUG start: modulators of start codon recognition fidelity in yeast | S. cerevisiae UUG-firefly luciferase reporter, luminescence/redox ratio | activity score, % at 18.7 µM | 350,000 tested, 0.13% active;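 active = replicate mean at a twofold rise or more, about +100% in these data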;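 note: firefly luciferase made from a UUG start codon reports start codon fidelity; reporter light over untreated wells divided by growth signal over untreated wells; some hits fall short of that in this replicate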
HIV Env fusion: HIV envelope-mediated fusion inhibition; AID 651610; 360,000 tested, 1.1% active; HeLa-JRFL Env/CEM21 cell fusion, luciferase; inhibition, % at 12.3 µM;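 active = mean replicate inhibition score of at least 50 and every replicate individually at or above 50; inconclusive = only one of the two criteria met; inactive = mean below 50 and not all replicates reaching 50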;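 note: 0% = plate neutral controls and 100% = maraviroc near 300 nM; one replicate is shown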
eIF4H FP inh retest: also measured in eIF4H FP inh; calls as there; inhibition, %; compound at 20 µM; confirmation average;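 mean of two retest wells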
PABP polyA inh retest: also measured in PABP polyA inh; calls as there; inhibition, %; compound at 20 µM; confirmation repeats;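 mean of two retest wells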
MT1-MMP act inh RFP: recorded beside MT1-MMP act inh, whose call it bears; RFP signal change, %; measured here: RFP expression control read;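 0 = vehicle wells; hits needed this value within 50% of zero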
An asterisk follows results filed as active; i = inactive; ? = inconclusive; . = no result given; + = active, no number; & = joins results of further samples. No enrichment for hits (roughly 2.9% active in at least one column).

SMILES	MT1-MMP act inh	MT1-MMP act inh RFP	eIF4H FP inh	CSC inhib	Rce1 inh	PABP polyA inh	Yeast UUG start	HIV Env fusion	others
Cc1nc2ccc(NS(=O)(=O)c3c(C)c(C)cc(C)c3C)cc2s1	-9	-30	-4	3	.	-8	4	-69
COC(=O)CCc1c(C)c(C(=O)c2ccc(F)cc2)c2ccccn12	1	6	3	3	i	-5	.	11
C/C=C/c1cc(OC)c2c(c1)[C@H](C)[C@@H](c1ccc(O)c(OC)c1)O2	6	2	.	2	i	.	-9	.
Cc1cc(NC(=O)CCC(=O)N(CC(=O)NCC2CCCO2)c2ccccc2)no1 (centres undefined)	1	1	-5	-37	i	-4	-8	-11
COC(=O)c1ccc(NC(=O)N2CCC(O)(c3cccnc3)CC2)cc1	4	8	-16	-8	i	8	-10	.
COc1ccc(S(=O)(=O)NC(N)=NCCc2ccc(OC)c(OC)c2)cc1C	2	1	-4	0	i	-6	.	-50
COc1cc(OC)c2c(c1)S(=O)(=O)C(c1ccccc1)=C2N	3	9	1	-11	i	-4	.	1
Cc1ccc(NCc2nnc(SCC(=O)c3ccccc3)n2Cc2ccco2)c(C)c1	-8	-2	13	7	i	0	.	-7
O=C(c1cccc(S(=O)(=O)NCc2ccccc2)c1)N1CCCC1	-2	3	7	-7	i	-3	.	8
CCOC(=O)c1c(C)oc2ccc(NS(=O)(=O)c3ccc4c5c(cccc35)C(=O)N4)cc12	6	-10	6	10	i	2	6	-4
CS(=O)(=O)Nc1ccc(C2=NN(C(=O)c3ccco3)C(c3ccccc3)C2)cc1 (centres undefined)	-5	-2	-10	-2	i	-3	.	-41
CC(C)CCNC(=O)c1ccc(CS(=O)(=O)Cc2ccccc2F)o1	2	-1	-8	-24	i	-8	9	11
CCCOC(=O)NC(CC)COC(=O)Nc1cc(C)ccc1C (centres undefined)	1	-1	-3	-6	i	-8	.	.
Cc1cc(NC(=O)c2ccco2)c(=O)n(Cc2c(F)cccc2Cl)c1	3	-3	-1	7	i	11	-14	-1
Cc1cc(OCCOc2cccc3cccnc23)c(C)cc1Cl	1	-1	-4	-1	i	5	0	.

Structures shown so far that have a halogen (four):
SMILES	MT1-MMP act inh	MT1-MMP act inh RFP	eIF4H FP inh	CSC inhib	Rce1 inh	PABP polyA inh	Yeast UUG start	HIV Env fusion	others
COC(=O)CCc1c(C)c(C(=O)c2ccc(F)cc2)c2ccccn12	1	6	3	3	i	-5	.	11
CC(C)CCNC(=O)c1ccc(CS(=O)(=O)Cc2ccccc2F)o1	2	-1	-8	-24	i	-8	9	11
Cc1cc(NC(=O)c2ccco2)c(=O)n(Cc2c(F)cccc2Cl)c1	3	-3	-1	7	i	11	-14	-1
Cc1cc(OCCOc2cccc3cccnc23)c(C)cc1Cl	1	-1	-4	-1	i	5	0	.

The list continues:
SMILES	MT1-MMP act inh	MT1-MMP act inh RFP	eIF4H FP inh	CSC inhib	Rce1 inh	PABP polyA inh	Yeast UUG start	HIV Env fusion	others
COc1ccc(NC(=O)c2ccc(NC(=O)c3nc4nccc(C)n4n3)cc2)cc1	1	0	.	11	.	.	-11	-3
O=C(c1cccc(Oc2ccc([N+](=O)[O-])cc2Cl)c1)N1CCOCC1	2	0	3	3	i	9	1	0
Cc1ccc(NC(=O)Nc2cccc(C(F)(F)F)c2)nc1	0	-2	-5	-13	i	10	.	2
Cc1cccc(NC(=O)C2(c3ccc([N+](=O)[O-])cc3)CCCC2)c1	-3	-8	-3	14	+	-11	-11	-15
N#CC1(C#N)COC23CCCCC2C1(C#N)C(=N)O3 (centres undefined)	-28	12	51	-17	i	32*	-19	-2	eIF4H FP inh retest=40;PABP polyA inh retest=70*
CCCc1cc(=O)[nH]c(SCC(=O)N(C)C2CCCCC2)n1	7	2	.	0	.	.	-15	.
Cc1cc(NC(=O)CSCC(=O)Nc2cc(Cl)ccc2N2CCN(C)CC2)no1	-7	-3	.	-9	.	.	-7	11
COc1ccccc1NC(=O)CSc1nc(O)c(Cc2ccccc2)c(=O)[nH]1	3	5	-2	-2	i	0	3	.
COc1cccc(OC)c1C(=O)N1CCN(c2ccccn2)CC1	-2	1	6	-4	i	-1	-7	.
CCC/C(=N\NC(=O)c1ccco1)c1ccc(Cl)s1	2	2	7	29	i	5	1	.
CC(C#N)Sc1ncnc2sc(-c3ccccc3)cc12 (centres undefined)	-3	-1	-12	10	i	8	8	20
CC1CCCCN1C(=O)Cn1c(=O)n(CCC(=O)NCc2ccco2)c(=O)c2sccc21 (centres undefined)	6	6	-6	-5	i	4	.	.
Cc1cc(NC(=O)COC(=O)CCS(=O)(=O)c2ccc(C)c(C)c2)no1	0	-3	3	5	i	1	-16	4
Cc1ccc(C(=O)NNC(=O)c2cccc(C)c2)cc1	3	4	-6	-9	i	-2	-8	11
CCOC(=O)c1nc2ccccc2nc1C	-3	0	12	2	i	6	.	.

3 entries drawn at random from those above, as already listed:
SMILES	MT1-MMP act inh	MT1-MMP act inh RFP	eIF4H FP inh	CSC inhib	Rce1 inh	PABP polyA inh	Yeast UUG start	HIV Env fusion	others
COc1cccc(OC)c1C(=O)N1CCN(c2ccccn2)CC1	-2	1	6	-4	i	-1	-7	.
CCOC(=O)c1nc2ccccc2nc1C	-3	0	12	2	i	6	.	.
CC1CCCCN1C(=O)Cn1c(=O)n(CCC(=O)NCc2ccco2)c(=O)c2sccc21 (centres undefined)	6	6	-6	-5	i	4	.	.

(continued)
SMILES	MT1-MMP act inh	MT1-MMP act inh RFP	eIF4H FP inh	CSC inhib	Rce1 inh	PABP polyA inh	Yeast UUG start	HIV Env fusion	others
Cc1cccc(Nc2nc3ccccc3n3nnnc23)c1	0	2	-4	-18	i	3	7	-6
Cc1c(O)ccc2c(=O)c(-c3nncn3-c3ccccc3)coc12	2	2	1	2	i	-4	.	-3
Cc1noc(C)c1COc1ccc(C(=O)OCC(N)=O)cc1	1	3	-12	-11	i	-1	.	11
CC[C@@H](NC(=O)[C@@H](Cc1ccccc1)NC(=O)CC[C@H]1O[C@@H](n2ccc(=O)[nH]c2=O)[C@H](O)[C@@H]1O)c1ccccc1	3	6	.	.	.	.	1	-5
O=C(C1CCN(S(=O)(=O)c2cccnc2)CC1)N1CCN(c2cccc(Cl)c2)CC1	-4	-2	3	3	i	-10	-11	38
CC(C)c1ccc2nc(NC(=O)C3CC3)sc2c1	-10	-8	-10	34	i	-2	-22	53
O=C(CN(C1CC1)S(=O)(=O)c1ccc(S(=O)(=O)N2CCCCCC2)cc1)Nc1ccccc1	-7	4	-6	1	i	5	1	.
CCOC(=O)c1ccc(NC(=O)Oc2cc(C)c(Cl)cc2C(C)C)cc1	3	2	-4	0	i	2	-11	-18
COc1ccc(CN([C@H](CO)CC(C)C)S(=O)(=O)N(Cc2ccccc2)[C@H](CO)CC(C)C)cc1	-5	-14	.	.	.	.	-7	-12
COc1ccc(-c2noc(CCC(=O)O)n2)cc1	3	4	-14	5	i	34	.	-10
CCCCNc1c(-c2cccc(SC(C)CC)c2)nc2ccc(Cl)cn12 (centres undefined)	-2&3	-5&-8	.	63	.	.	-34	6&41
Cc1ccccc1C(=O)NC(=S)Nc1ccc(N2CCN(C(=O)c3ccccc3)CC2)cc1	-14	-21	-8	-6	i	1	-8	.
C/C(=N\NC(=O)CNC(=O)C1COc2ccccc2O1)c1ccco1 (centres undefined)	-6	0	4	-10	i	10	1	7
Cc1ccccc1NC(=O)c1cc(S(=O)(=O)c2ccccc2)ccc1Cl	-4	-5	-2	-12	i	-2	-5	.
CS(=O)(=O)N1N=C(c2cccs2)CC1c1ccco1 (centres undefined)	-9	5	0	-19	i	-2	-21	-4
COc1ccc(-n2nnnc2S(=O)(=O)Cc2ccc(C(=O)O)cc2)cc1	-3	-6	4	51	.	22	-22	?
CNC(=S)Nc1cccc(-c2cnc3ccccc3n2)c1	-4	0	-6	0	i	-7	-14	-22
CCOC(=O)C1CCN(C(=O)CN2C(=O)c3ccccc3Sc3ncccc32)CC1	0	0	-6	-10	i	-2	-6	1
C/C(=C\c1ccccc1)C(=O)NCCCn1ccnc1	5	6	-4	-8	i	-3	.	-3
O=C(Cn1cc([N+](=O)[O-])cn1)N1N=C(C(F)F)CC1(O)C(F)F (centres undefined)	-1	0	3	-1	i	0	-15	-47
CC(C)(C)c1cccc(P(=O)(c2ccccc2)c2ccccc2)c1O	-2	-1	-8	12	i	5	.	35
Cc1ccc(C(=O)N2CCN(c3ccc(N4CCOCC4)nn3)CC2)cc1C	4	2	.	-8	i	.	-7	3
O=C1C2CC=CCC2C(=O)N1c1n[nH]c(-c2ccccc2)n1 (centres undefined)	-5	3	-5	.	i	0	-6	.
CCOC(=O)Cc1csc(NC(=O)c2c(-c3c(F)cccc3Cl)noc2C)n1	-5	-6	-14	20	i	-14	.	5
C=CCOc1ccc(/C=N/NC(=O)CN2CCCCC2)cc1OC	-2	-1	-13	-4	i	-5	-1	-3
CCOc1nc2cnccc2n(CC(=O)Nc2c(C)cccc2CC)c1=O	1	4	-12	-2	i	1	-7	-11
